Sa helicase inh = blocks Staphylococcus aureus DNA helicase. hit rate 0.05% among 120,000. inhibition, %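 (tested at about 80 µM)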. purified S. aureus helicase, fluorescence unwinding assay; about half of the hits fall short of the stated cut;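 active means both duplicates at 50% or more, or one of them with a favoured structure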;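 further: 0% = mean of negative control wells and 100% = mean of positive control wells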
MgrA DNA FP = modulators of Staphylococcus aureus MgrA DNA binding | fluorescence polarization | inhibition, %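 (about 10 µg/mL by stock and volumes)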 | hit rate 0.13% among 84,000;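 active means above 50% in either of two replicates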;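 further: 0% = protein plus DNA without compound and 100% = DNA alone without protein; higher means less MgrA bound to DNA so lower polarization; one replicate is shown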
Active calls of the source: *; x = no result given; & = joins results of further samples. This is a subset (hit frequency here may not be typical).

Results follow in this order: Sa helicase inh, MgrA DNA FP
CC(=O)c1sc2ccc(C)cc2c1C
 : x, 2.4
S=c1[nH]nc(-c2ccccc2)n1CC1CCCO1 (stereo unspecified)
 : 6, 0.0
CCC(Sc1nc2c(sc3ccccc32)c(=O)n1CCc1ccccc1)C(=O)N1CCOCC1 (stereo unspecified)
 : 8, 4.2
CC(=O)Nc1cccc(C2=Nc3ccccc3SC(c3ccccc3)C2)c1 (stereo unspecified)
 : 15, 1.4
CN(C)c1nc(SCCOC(=O)c2ccccc2)nc(N(C)C)n1
 : x, 3.6
Cc1ccc(S(=O)(=O)c2nc(S(C)(=O)=O)sc2N(C)C)cc1
 : 4, -1.8
c1ccc2[nH]c(NC3=NCCCCC3)nc2c1
 : 0, x
Cc1ccc2[nH]c3c(c2c1)C[N+](C)(Cc1ccccc1)CC3 (stereo unspecified)
 : 17, 4.0
O=C(c1cccc(C(F)(F)F)c1)N1CC(=O)N(CCc2ccccc2)C(=O)C1
 : 6, -1.6
Cc1cc2occ(CC(=O)N(C)C)c2cc1Cl
 : 4, -4.7
CC1(C(=O)c2ccccc2)C2c3cc(Br)ccc3OC(=O)C21C(=O)N1CCCCC1 (stereo unspecified)
 : 9, 0.7
NS(=O)(=O)c1ccc(CCNC(=O)c2ccc(Cn3c(=O)[nH]c4ccccc4c3=O)cc2)cc1
 : 1, -0.9
CC(C)CN(C(=O)c1ccncc1)c1nc2ccccc2s1
 : -7, x
CC1(C)N=C(c2ccccc2)C(=O)N1CC(=O)Nc1ccccc1
 : 19, -0.6
Clc1ccccc1-c1ncc2ccccn12
 : 5, x
Nc1nc(C2COc3ccccc3O2)ncc1S(=O)(=O)c1ccccc1 (stereo unspecified)
 : x, 0.8
CN(C)c1nc(OC(C(F)(F)F)C(F)(F)F)nc(N(c2ccccc2)c2ccccc2)n1
 : 13, -0.4
N#CCCN(Cn1nnc2ccccc21)c1ccccc1
 : -2, x
CCN(CC)CCCNc1nc2ccccc2[nH]1
 : 4, x
CC(C)(C)NC(=O)CSc1ncnc2c1cnn2-c1ccccc1
 : 30, x
NS(=O)(=O)c1ccc2c3c(cccc13)C(=O)N2
 : 15, x
Cc1cc(N(C)C)n2nc(Cc3ccccc3)nc2n1
 : -19, x
Brc1ccc(CSc2ccc(-c3ccco3)nn2)cc1
 : 2, x
CC(=O)N1CCC(N(C(=O)Nc2cccc(Br)c2)C(C)C)CC1
 : 27, x
COc1ccc(Nc2nc3c(C)cccn3c(=O)c2C=NCc2ccccc2)cc1
 : 3, 1.5
O=C(O)CN1C(=O)c2cccc3cccc1c23
 : 3, x
CCN(C(=O)C1CCCN1S(=O)(=O)c1ccc2c(c1)n(C)c(=O)c(=O)n2C)c1ccccc1 (stereo unspecified)
 : 27, x
NC(=O)c1nn(CC(=O)N2CCCC2c2ccc3c(c2)OCCCO3)c(=O)c2ccccc12 (stereo unspecified)
 : 11, x
CC1Cc2ccccc2N1C(=O)/C=C/c1cccs1 (stereo unspecified)
 : 6, x
CC(=O)Nc1cccc2nsnc12
 : 1, x
CN1C(=O)C(C(N)=O)=C(N)C12CCCC2
 : -5, x
Cc1ccc2c(C)c(-c3ccccc3)c(=O)oc2c1
 : -6, -1.9
CC(Sc1nnc(-c2cc3ccccc3o2)n1-c1ccccc1)C(=O)O (stereo unspecified)
 : -9, -1.0
O=S(=O)(/C=C/c1ccccc1)NNc1ccccc1
 : 4, x
Cc1oc(C)c(C(=O)Nc2ccc(CC(=O)O)cc2)c1C(=O)Nc1ccc(CC(=O)O)cc1
 : 1, 0.4
O=C(c1cc(S(=O)(=O)N2CCCCC2)c(Cl)cc1Cl)N1CCCCC1
 : -15, 0.8
CC(C)C(=O)N(c1ccc(Cl)cc1)C1C=CS(=O)(=O)C1 (stereo unspecified)
 : 1, x
O=C(NN1C(=O)c2ccccc2C1=O)c1cccc(Cl)c1
 : 35, x
CC1CCc2c(sc3nc(CSc4n[nH]c(N)n4)[nH]c(=O)c23)C1 (stereo unspecified)
 : 10, x
O=c1oc2cc(Oc3ncccn3)ccc2c2c1CCCCC2
 : -20, x

Individual results from the results shown:
Entry of Cc1oc(C)c(C(=O)Nc2ccc(CC(=O)O)cc2)c1C(=O)Nc1ccc(CC(=O)O)cc1 under MgrA DNA FP: 0.4
Entry of NC(=O)c1nn(CC(=O)N2CCCC2c2ccc3c(c2)OCCCO3)c(=O)c2ccccc12 (stereo unspecified) under Sa helicase inh: 11
Entry of O=S(=O)(/C=C/c1ccccc1)NNc1ccccc1 under Sa helicase inh: 4

Other structures:
Results follow in this order: Sa helicase inh, MgrA DNA FP
COc1ccc(-c2cc(C(F)(F)F)n3nc(C(=O)NCc4cccnc4)c(Cl)c3n2)cc1OC
 : x, -0.9
O=C(Nc1ccc(Cl)cc1)c1cn(-c2ccccc2)nc1-c1cccnc1
 : 6, -2.6
O=C1c2ccccc2C(=O)N1CN(CCSc1ccccc1)CN1C(=O)c2ccccc2C1=O
 : x, 2.8
Cc1cc(OCC(=O)NC(Cc2c[nH]c3ccccc23)C(=O)O)cc(C)c1Cl (stereo unspecified)
 : -9, 1.4
Cc1nc2ccccc2c(=O)n1CCO
 : 5, 1.8
Cc1ccc(CSCC(=O)NCc2ccc3c(c2)OCO3)cc1
 : x, 1.6
O=C(COc1ncnc2ccccc12)Nc1ccc(Cl)cc1
 : -19, x
Cc1cccc(C(=O)Nc2cccnc2)c1
 : -13, 0.5
O=C(O)CCN1N=C(c2ccccc2)/C(=C\c2cn(-c3ccccc3)nc2-c2cc3ccccc3o2)C1=O
 : 12, x
COc1ccc(NC(=S)Nc2ccccc2Cl)cc1OC
 : x, 2.1
COC(=O)c1cccc(OCC(O)Cn2ccnc2)c1 (stereo unspecified)
 : 8, 0.9
CCC(=O)c1c[nH]c(C(=O)NC)c1
 : x, -2.3
O=C(O)/C(S)=C\C=C\c1ccccc1
 : 29, x
COCCNC(=S)c1ccc(OC)cc1
 : 13, 28
NC(=O)c1ccc(-c2ccc(C(N)=O)cc2)cc1
 : x, 0.1
CN1C(=O)/C(=C/c2cn(CC(=O)N3CCCC3)c3ccccc23)C(=O)NC1=S
 : 2, 2.8
Cc1cc(C)c(CS/C(N)=N/N)c(C)c1
 : x, 0.5
O=C1Nc2ccccc2/C1=C\c1ccc(N2CCOCC2)cc1
 : -8, x
CC(C)C(=O)Nc1sc2c(c1C(=O)O)CCCC2
 : 39, x
O=C(Sc1ccccc1)c1csc(-c2cccnc2)n1
 : x, -5.5

Molecules listed so far with fluorine:
Results follow in this order: Sa helicase inh, MgrA DNA FP
O=C(c1cccc(C(F)(F)F)c1)N1CC(=O)N(CCc2ccccc2)C(=O)C1
 : 6, -1.6
CN(C)c1nc(OC(C(F)(F)F)C(F)(F)F)nc(N(c2ccccc2)c2ccccc2)n1
 : 13, -0.4
COc1ccc(-c2cc(C(F)(F)F)n3nc(C(=O)NCc4cccnc4)c(Cl)c3n2)cc1OC
 : x, -0.9

More results follow:
Results follow in this order: Sa helicase inh, MgrA DNA FP
CCc1ccc(OCc2nnc(SCC(=O)NC)n2CC(C)C)cc1
 : -8, x
CCn1nnc2cc(C(=O)Nc3ccc4c(c3)CCC4)ccc21
 : -21, x
COc1cccc(NC(=O)C2CCN(S(=O)(=O)c3cc(Br)cc4c3N(C(C)=O)CC4)CC2)c1
 : -33, x
N#Cc1ccc(CN2CCCC2)cc1
 : 13, x
COc1ccccc1NC1=NC(C)(C)N=C(N)N1
 : -1, x
O=C1NCCN/C1=C/C(=O)c1ccc(Br)cc1
 : 7, -0.2
COc1ccc(-c2csc(Nc3ncccn3)n2)cc1
 : 4, x
CC1CCCC(C)N1C(=O)COC(=O)c1ccc[nH]c1=O (stereo unspecified)
 : -21, x
CC(C)Oc1ccc(CCN=C(N)N=C(N)N)cc1Cl
 : 3, 0.4
CCCN(CCC)c1nc(NC2CCN(C(=O)OCC)CC2)nc(OC)n1
 : 14, x
CCOC(=O)c1sc(N2CCCC2)c2c1CC(C)(C)CC2=O
 : x, -1.7
O=C(Nc1nc2ccc(S(=O)(=O)N3CCCC3)cc2s1)c1ccncc1
 : 22, -1.8
COCCN(CCOC)S(=O)(=O)c1ccc(C(=O)Nc2nnc(-c3ccccc3Cl)s2)cc1
 : x, -2.6
CCc1cc(=O)[nH]c(SCc2c(F)cccc2Cl)n1
 : x, 2.1
O=C(CCCSc1ccccc1)Nc1cccc(CO)c1
 : 15, x
COc1ccc(CCNC(=O)/C(C#N)=C/c2ccc[nH]2)cc1OC
 : -28, x
NCCN1C(=O)S/C(=C\c2ccc(Cl)c(Cl)c2)C1=O
 : 3, x
COc1cccc(NC(=O)NCCCNc2nc3cc(C)cc(C)c3cc2C#N)c1
 : 4, 1.7
COc1ccc(/C=C2\CN(C)CC3=C2OC(N)=C(C#N)C3c2ccc(OC)c(OC)c2)cc1OC (stereo unspecified)
 : x, 2.9
COc1ccc(N=Cc2cc(Br)ccc2O)c(S(=O)(=O)N2CCOCC2)c1
 : -25, x

Next part:
mol	Sa helicase inh	MgrA DNA FP
COc1ccc(/C=C/C(=O)OCC(=O)N2CC(C)CC(C)C2)cc1 (stereo unspecified)	6	x
COC(=O)CSc1nnc(C2CCCCC2)n1Cc1ccccc1	0	3.7
Cc1ccc(NC2(C#N)C(=O)Nc3ccccc32)cc1C (stereo unspecified)	-17	x
Cc1nnc(SCN2C(=O)c3ccccc3C2=O)n(N)c1=O	7	x
CC1(C)C2CC[C@@](C)(C2)C1NS(=O)(=O)c1ccc(-c2cc(C(F)(F)F)on2)s1 (stereo partly specified)	x	-1.4
CC1(C)CC2CC(C)(CN2C(=O)CSc2nn3c(=O)c(C(C)(C)C)nnc3s2)C1 (stereo unspecified)	9	x
Cc1onc(-c2ccccc2Cl)c1C1=NCCO1	x	1.6
CCSC1=C(C#N)C(=O)NC(/C=C/c2ccccc2)S1 (stereo unspecified)	7	-0.3
CC1CN(c2ccccc2)NC1=O (stereo unspecified)	10	1.3
CN1CCC(N(C)C(=O)COc2ccccc2Cl)CC1	-5	x
COc1cc2cc(C(=O)O)cc(-c3ccc(C)cc3)c2cc1OC	3	2.7
c1c2c(cc3sc(N4CCCCC4)nc13)OCCO2	21	x
COCc1cc(C)nc2sc(C(=O)Nc3ccc(S(N)(=O)=O)cc3)c(N)c12	-1	x
Nc1ncnc2c1ncn2CCNCc1ccccc1	2	-0.9
Cc1ccc(-n2c(SCC3NS(=O)(=O)N=C4CCCCCN43)nnc2-c2ccccc2)cc1C (stereo unspecified)	-3	x
COc1ccc(C=C2C(=O)N(C)C(=S)N(C)C2=O)c(C)c1	4	24
COc1ccc(S(=O)(=O)N2CCN(C)CC2)c(C)c1C	-8	x
O=C1CN(Cc2ccccc2)CC(=O)N1CCc1ccccc1	-2	x
CC(C)Cn1c(CC(C)(C)C)nc2ccccc21	7	0.0
O=C(NCc1csc2ccc(Cl)cc12)c1ccc(C(F)(F)F)cc1	x	1.9
CCCCN(CC)C(=O)c1ccc(Cl)c(Cl)c1	8	-2.2
C=CCNC(=S)N(Cc1ccccc1O)CC1CCCO1 (stereo unspecified)	12	x
CCN=c1scc(C)n1/N=C/c1ccc2c(c1)OCCO2	-16	x
CCOC(=O)N1CCc2c(sc3c2c(=O)n(Cc2ccccc2)c(=O)n3CC(=O)NC(C)CC)C1 (stereo unspecified)	3	-0.4
CCc1nc2ccccc2c(C(=O)OCC(=O)NCc2ccccc2)c1C	6	-1.1
N[C@@H](Cc1ccc(O)c(O)c1)C(=O)O	x	4.3&5.2
CC1CCC(NC(=O)Cn2nc(Cc3ccncc3)c3ccccc3c2=O)CC1 (stereo unspecified)	13	x
CCc1ccccc1NC(=O)C(CC)n1c2ccccc2c2nc(=O)cc(C)n21 (stereo unspecified)	19	1.5
Cc1ccc(CC/C=N/NC(N)=S)o1	1	1.2
Cc1ccc(C(=O)NC2CCSC2=O)cc1 (stereo unspecified)	6	-2.1
CC1CC(NC(=O)c2ccccc2N)CC(C)(C)C1 (stereo unspecified)	x	0.7
CCN1CCc2c(sc(N)c2C(=O)OC)C1	0	0.9
O=C(O)Cc1ccsc1	-15	x
Cc1c(O)c(C(=O)c2nn[nH]n2)c(=O)n(-c2ccccc2)c1-c1ccccc1	x	1.6
Cc1ccc(-n2ncc3c2ncn2nc(Cc4ccccc4)nc32)cc1	12	0.5
O=C1CSC(=O)N1CC(O)Cn1c2ccccc2c2ccccc21 (stereo unspecified)	4	3.5
CC(=O)Nc1ccc(C(=O)OCC(=O)c2ccc3c(c2)OCCO3)cc1	7	x
COc1ccc(-c2noc(N3CCc4ccccc4C3)n2)cc1	-6	x
S=c1cc(-c2ccccc2)sc2ccccc12	13	-1.5
CCn1c(SCC(=O)OCC(=O)N=c2sccn2Cc2ccc(C)cc2)nnc1-c1ccco1	-13	x
Cc1ccc2c(c1)NC(c1ccc(C(=O)O)cc1)c1cccn1-2 (stereo unspecified)	x	4.7
Cc1ccc(C)c(CN2C(=O)c3ccccc3S(=O)(=O)c3ccc(C(=O)NCCN(C)C)cc32)c1	5	-0.8
O=C(O)c1ccc(-c2cn3cccnc3n2)cc1	x	-1.8
CCC1(CC)NC(=O)N(Cc2nnc(-c3ccccc3Br)o2)C1=O	-10	x

Reformatted with values ahead of the structure: part of the list above.
Sa helicase inh	MgrA DNA FP	SMILES
12	0.5	Cc1ccc(-n2ncc3c2ncn2nc(Cc4ccccc4)nc32)cc1
4	3.5	O=C1CSC(=O)N1CC(O)Cn1c2ccccc2c2ccccc21 (stereo unspecified)
7	x	CC(=O)Nc1ccc(C(=O)OCC(=O)c2ccc3c(c2)OCCO3)cc1
-6	x	COc1ccc(-c2noc(N3CCc4ccccc4C3)n2)cc1
13	-1.5	S=c1cc(-c2ccccc2)sc2ccccc12
-13	x	CCn1c(SCC(=O)OCC(=O)N=c2sccn2Cc2ccc(C)cc2)nnc1-c1ccco1

Screening data: PubChem, ICCB-Longwood Screening Facility, Harvard Medical School
